High-throughput results from PubChem.
Rce1 inh = yeast Rce1p protease inhibitors, primary screen, biochemical, fluorescence, cell-free homogeneous; AID 2563, 2010; yeast membranes, quenched prenylated peptide cleavage fluorescence; calls only; 0.27% of 290,000 active;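 active means fall in fluorescence gain of 50% or more versus controls, with final raw signal at or below 3038400; inconclusive means same 50% fall but final raw signal above 3038400; inactive means fall in fluorescence gain under 50%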;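 further: plate controls were neutral control wells for no effect and wells lacking membranes for full effect; tested at 10 µM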
Target sequence (Q03530 whole entry, looked up): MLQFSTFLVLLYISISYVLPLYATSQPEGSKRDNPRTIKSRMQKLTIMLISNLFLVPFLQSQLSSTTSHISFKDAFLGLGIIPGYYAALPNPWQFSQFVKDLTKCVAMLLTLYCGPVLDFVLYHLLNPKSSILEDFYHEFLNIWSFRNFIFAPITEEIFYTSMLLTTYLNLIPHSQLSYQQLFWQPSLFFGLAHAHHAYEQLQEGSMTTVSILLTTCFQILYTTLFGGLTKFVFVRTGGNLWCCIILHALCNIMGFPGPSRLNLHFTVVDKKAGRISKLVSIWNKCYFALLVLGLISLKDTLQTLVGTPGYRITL
UUG fidelity = modulators of yeast start codon fidelity, primary screen, whole organism, S. cerevisiae, single point, plate reader. S. cerevisiae UUG-firefly luciferase reporter, luminescence/redox ratio. activity score, % at 18.7 µM. 0.13% of 350,000 active. AID 602363, 2012;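 active means replicate mean at a twofold rise or more, about +100% in these data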;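 further: firefly luciferase made from a UUG start codon reports start codon fidelity; reporter light over untreated wells divided by growth signal over untreated wells; some hits fall short of that in this replicate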
PABP FP inh = PABP poly(A) RNA binding inhibitors, primary screen, biochemical, fluorescence polarization, uHTS; inhibition, % at 35 µM; Polyadenylate-binding protein 1 (Homo sapiens), P11940; 1% of 290,000 active; AID 2014, 2009;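 active means 50% or more with normal probe brightness, or confirmed in later tests; inconclusive means above 50% with abnormal brightness, or retests that disagree; inactive means below 50% or failed in later tests; about a fifth of its hits are not listed in these tables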;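 further: calls also rest on retests at 20 µM and on dose response follow-up; controls were probe without protein and protein plus probe with vehicle; some compounds called inactive have numbers as strong as hits; many hits fall short of the cut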
Target sequence (P11940 whole entry, looked up): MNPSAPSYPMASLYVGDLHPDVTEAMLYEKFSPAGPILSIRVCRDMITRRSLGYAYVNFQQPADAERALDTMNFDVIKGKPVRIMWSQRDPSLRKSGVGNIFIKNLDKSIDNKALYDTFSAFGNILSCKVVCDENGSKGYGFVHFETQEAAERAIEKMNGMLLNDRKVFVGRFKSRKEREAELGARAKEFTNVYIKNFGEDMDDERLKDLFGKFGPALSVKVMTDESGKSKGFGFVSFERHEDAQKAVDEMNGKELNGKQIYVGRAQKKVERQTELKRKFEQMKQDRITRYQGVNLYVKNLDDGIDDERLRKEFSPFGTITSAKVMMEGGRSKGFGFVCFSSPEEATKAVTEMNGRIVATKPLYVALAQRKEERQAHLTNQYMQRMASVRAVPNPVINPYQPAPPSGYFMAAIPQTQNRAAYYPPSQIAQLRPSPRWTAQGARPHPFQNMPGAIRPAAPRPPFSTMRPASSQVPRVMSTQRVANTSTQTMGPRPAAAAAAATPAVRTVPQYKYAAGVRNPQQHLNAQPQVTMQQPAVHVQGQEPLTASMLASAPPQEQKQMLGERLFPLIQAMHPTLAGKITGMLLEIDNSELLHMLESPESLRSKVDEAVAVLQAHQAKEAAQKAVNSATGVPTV
CSC inhib = cancer stem cell viability inhibitors, primary screen, luminescence; inhibition, % at 7.5 µM; 1.1% of 300,000 active; cancer stem cell-like cells viability;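 active means mean at 75% or more and at least half the replicates too; inconclusive means mean and replicates disagree; tested in HMLE shEcad cells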;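 further: 0% = median of negative and 100% = median of positive control wells; the first replicate is given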
MT1-MMP act inh = blockers of MT1-MMP proenzyme processing, primary screen, HT1080 RFP-PRO-GFP cells, GFP/RFP fluorescence; 0.061% of 360,000 active; Matrix metalloproteinase-14 (Homo sapiens), P50281; GFP/RFP ratio fluorescence, overnight; percent of plate control window, DMSO zero; GFP/RFP ratio change, % at 20 µM;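 active means GFP/RFP ratio change of at least 30% with cell ATP level not reduced by more than half and red fluorescence within 50% of control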; further: strong numbers were not always called active
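Material – HT1080 RFP-PRO-GFP cells · Control set – DMSO wells and RFP-L50D-GFP cells · Incubation – overnight cell settling, then overnight compound exposure, 37 °C, 5% CO2 · Compound dosing – single-point 20 µM compound, 1% DMSO · Read-out – GFP/RFP fluorescence ratio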
eIF4H FP inh = human eIF4H binding inhibitors, primary screen, translation initiation inhibitor project, biochemical, uHTS, fluorescence polarization; 0.94% of 290,000 active; inhibition, % at 35 µM; AID 2012, 2009; eIF4H fluorescence polarization binding assay;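 active means 50% or more with normal probe brightness, or confirmed in later tests; inconclusive means above 50% with abnormal brightness, or retests that disagree; inactive means below 50% or failed in later tests; about a fifth of its hits are not listed in these tables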;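 further: calls also rest on retests at 20 µM and on dose response follow-up; 0% = protein and probe with vehicle and 100% = probe without protein; strong numbers were not always called active; many hits fall short of the cut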
HIV Env fusion = inhibitors of HIV-1 Env-driven cell-cell fusion, primary screen, HeLa-JRFL effector, CEM21 target cells, luciferase. 1.1% of 360,000 active. inhibition, % at 12.3 µM;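 active means mean replicate inhibition score of at least 50 and every replicate individually at or above 50; inconclusive means only one of the two criteria met; inactive means mean below 50 and not all replicates reaching 50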;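 further: 0% = plate neutral controls and 100% = maraviroc near 300 nM; one replicate is shown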
eIF4H FP inh retest = second read-out of eIF4H FP inh, no call of its own (marks repeat the call); inhibition, %; compound at 20 µM; confirmation average;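 mean of two retest wells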
PABP FP inh retest = also measured in PABP FP inh; calls as there; inhibition, %; compound at 20 µM; confirmation repeats;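 mean of two retest wells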
MT1-MMP act inh RFP = recorded beside MT1-MMP act inh, whose call it bears; RFP signal change, %; measured here: RFP expression control read;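 0 = vehicle wells; hits needed this value within 50% of zero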
Starred values were filed as active, the others as inactive; i = inactive; u = inconclusive; x = not tested or not shown; & = joins results of further samples; [ ] = dose if it differs, or a comment.

SMILES | Rce1 inh | UUG fidelity | PABP FP inh | CSC inhib | MT1-MMP act inh | MT1-MMP act inh RFP | eIF4H FP inh | HIV Env fusion | others
COc1cc(C(=O)OCC(=O)c2cc(C)n(C)c2C)cc(NC(=O)c2ccco2)c1OC | i | -15 | 4 | -5 | 0 | -1 | -6 | -30
Cc1ccc(C2=N/C(=C/N3CCOCC3)C(=O)O2)cc1 | i | -3 | 1 | x | -1 | 1 | -12 | -65
Cc1nn(C)c(NC(=O)c2ccc(Cl)cc2Cl)c1Br | i | -9 | -1 | -4 | -1 | 1 | 1 | 2
O=S(=O)(Nc1ccccc1)c1ccc(NS(=O)(=O)c2c(F)cccc2F)cc1 | x | -15 | 0 | -8 | -12 | -2 | -10 | -2
O=C(CCCN1C(=O)CCC1=O)Nc1ccc2c(c1)OCCO2 | i | -17 | -10 | -5 | 7 | 4 | -9 | x
O=C(c1cnc2sccn2c1=O)N(Cc1ccccc1)c1ccccn1 | i | -13 | -6 | 0 | 0 | 11 | -2 | -16
Cc1cc(C)c(C)c(OCC(=O)O/N=C(\N)c2ccccn2)c1 | i | -29 | 1 | -8 | 1 | 3 | -5 | x
CCOc1ccc(NS(=O)(=O)c2ccc(C(=O)NCC(c3ccco3)N3CCCC3)cc2)cc1 (stereo unspecified) | x | -7 | x | x | 3 | -3 | x | 2
CCOC(=O)c1c[nH]c2c(C)cc(C)cc2c1=O | i | 3 | -2 | -4 | 3 | 0 | -18 | -39
O=C(COC(=O)c1ccccc1O)NCc1ccc2c(c1)OCO2 | x | -21 | x | 9 | 5 | -3 | x | x
COc1cc(C(=O)OCC(=O)NC2CCCC2)cc(OC)c1OC | i | 6 | 0 | 1 | 2 | -1 | -2 | -7
CC(=O)Oc1c(S(=O)(=O)c2ccc(C)cc2)c(C)nn1-c1ccccc1 | i | -9 | -9 | -8 | -1 | 5 | -6 | x

Molecules listed so far containing a halogen, in the order listed:
SMILES | Rce1 inh | UUG fidelity | PABP FP inh | CSC inhib | MT1-MMP act inh | MT1-MMP act inh RFP | eIF4H FP inh | HIV Env fusion | others
Cc1nn(C)c(NC(=O)c2ccc(Cl)cc2Cl)c1Br | i | -9 | -1 | -4 | -1 | 1 | 1 | 2
O=S(=O)(Nc1ccccc1)c1ccc(NS(=O)(=O)c2c(F)cccc2F)cc1 | x | -15 | 0 | -8 | -12 | -2 | -10 | -2

The list continues:
SMILES | Rce1 inh | UUG fidelity | PABP FP inh | CSC inhib | MT1-MMP act inh | MT1-MMP act inh RFP | eIF4H FP inh | HIV Env fusion | others
COc1ccc(CCNC(=O)CSc2nc(=O)[nH]c3c2CCC3)cc1OC | i | x | x | -5 | 1 | 3 | x | x
O=C(c1cc(-c2ccc(O)cc2)on1)N1CCCCCC1 | i | -41 | 3 | 34 | 3 | 5 | -10 | -90
O=C(COC(=O)/C=C/c1ccc(OC(F)F)cc1)Nc1cccc(S(=O)(=O)N2CCCC2)c1 | i | 1 | x | 1 | 4 | -1 | x | 14
COC(=O)CCN(c1ccccc1)S(=O)(=O)c1ccc(OC)cc1 | i | -8 | 20 | -21 | 2 | -4 | 2 | x
O=C(CCC1CCCCC1=O)c1ccccc1 (stereo unspecified) | i | -2 | -3 | -18 | 5 | 0 | -14 | -37
C[C@H]1Cn2cnc(C(=O)Nc3ccc(CNC(=O)OC(C)(C)C)cc3)c2C(=O)N1 | x | -10 | x | x | 6 | -5 | x | u
Cc1ccc(S(=O)(=O)N2C[C@H]3C(=O)C[C@@H](c4ccccc4)N(S(=O)(=O)c4ccccc4[N+](=O)[O-])[C@H]3C[C@H]2c2ccccc2)cc1 | x | -4 | x | x | -2 | -3 | x | -6
CN(CC(=O)Nc1cccc(F)c1)C(=O)c1ccc(N2CCOCC2)c([N+](=O)[O-])c1 | i | -12 | 2 | -20 | -2 | -7 | -2 | 14
COc1ccccc1NC(=O)CN1CCN(S(=O)(=O)c2ccc(Br)cc2)CC1 | i | x | 0 | x | -3 | -4 | -10 | x
CS(=O)(=O)N(CC(=O)NCc1ccc2c(c1)OCO2)Cc1ccc(Cl)cc1 | i | -6 | -4 | -4 | -1 | -1 | -9 | x
CCCCNC(=O)c1cc([N+](=O)[O-])[nH]n1 | i | -18 | 8 | 0 | 3 | 5 | -1 | x
CC(Oc1ccccc1)C(=O)N1CCN=C1SCc1ccccc1 (stereo unspecified) | i | x | 15 | 5 | 3 | -2 | 4 | 21
O=C(CN1CCCCC1)NC1CCc2cc3c(cc21)CCC3 (stereo unspecified) | i | 41 | x | -1 | 14 | -5 | x | -1
CCSc1nnc(C)n1-c1ccc(C(=O)O)cc1 | i | -4 | 7 | 1 | 0 | 3 | -10 | x
COc1ccc2sc(NC(=O)CC(C)C)nc2c1 | i | -14 | 4 | -6 | -2 | -2 | 1 | -125
CCOc1ccccc1NC(=O)C(NCC1CCCCC1)c1ccccc1 (stereo unspecified) | i | x | 6 | 24 | -9 | -19 | 4 | 36
O=C(CN1C(=O)c2cccc3cccc(c23)C1=O)NCCCO | i | -12 | -8 | -7 | -2 | 0 | 4 | -2
CCOC(=O)N1CCN(S(=O)(=O)c2ccc(F)c(C(=O)Nc3cccc(Cl)c3C)c2)CC1 | i | 7 | -6 | 9 | -6 | -12 | -5 | -12
O=C(O)c1nccnc1C(=O)Nc1ccccc1N1CCOCC1 | i | x | 10 | -2 | -3 | 3 | -6 | 6
CC1CCCCC1N1CN=C(Nc2nc3ccccc3s2)NC1 (stereo unspecified) | i | x | -4 | 5 | 7 | -5 | -4 | -4
C/C=C(/C)C(=O)O[C@@H]1[C@H](OC(=O)C=C(C)C)c2c(ccc3ccc(=O)oc23)OC1(C)C | i | -32 | 0 | -4 | -8 | -8 | -7 | 21
O=C(NC1CCCCC1)C(=S)N1CCOCC1 | i | -16 | -7 | -2 | 1 | 5 | -4 | -8
Cc1ccc(S(=O)(=O)N(C)C)cc1NC(=O)COC(=O)CCC1CCCC1 | i | x | x | -9 | 5 | -2 | x | -6
Cc1cc(NC(=O)C2CC(=O)N(c3cccc(Cl)c3)C2)no1 (stereo unspecified) | i | 1 | 5 | 13 | -2 | -1 | 1 | -9
Cc1ccc(C)c(NC(=O)COc2cccc3c2CCN(Cc2ccccc2C)C3=O)c1 | i | -19 | -10 | 3 | -8 | -10 | 6 | 0
OCc1nc2ccccc2n1CCCCOc1ccccc1 | i | -12 | x | -1 | 1 | -5 | x | 0
Cn1nc(C(C)(C)C)c([N+](=O)[O-])c1C(=O)N1CCOCC1 | i | -15 | 2 | -11 | 4 | 5 | -3 | -6
O=C(CSc1nccc(-c2cccs2)n1)Nc1ccc(Cl)cc1 | i | x | 33 | 23 | 2 | -1 | 40 | 10
CCN(CC(=O)NCc1ccc(F)cc1)CC(=O)NC1CCCC1 | i | 0 | 5 | 0 | -1 | 4 | 4 | 8
Cn1c(-c2ccc3c(c2)OCO3)cnc1N | i | -23 | -3 | -7 | 15 | 6 | -2 | -51
COc1cccc(C2=NCCc3cc4c(cc32)OCO4)c1OC | i | 2 | 4 | -12 | x | x | -2 | 19
Cn1c(C(=O)NCCCN2CCCC2=O)cc2c(=O)n(C)c3ccccc3c21 | i | 10 | 9 | -6 | 8 | 6 | 3 | -7
COc1ccc(CNC(=O)COc2ccc(C)nc2[N+](=O)[O-])cc1 | i | x | -2 | 4 | 1 | 2 | 7 | 13
Cc1ccc(-c2ccc3c(c2)O[C@H](CN(C)C(=O)Nc2ccc(C(F)(F)F)cc2)[C@H](C)CN([C@H](C)CO)S3(=O)=O)cc1 | x | -19&60 | x | x | -1 | -1 | x | 15[16.7 µM]
COC(=O)CC1C(=O)NCCN1C(=S)NC(=O)c1sc2ccccc2c1Cl (stereo unspecified) | i | x | -3 | -10 | 1 | -2 | 7 | -20
Cc1cc2nc(C3CCN(C(=S)NCCCOC(C)C)CC3)[nH]c2cc1C | i | x | -11 | -1 | 4 | 2 | -6 | 6
O=C1Nc2ccc(S(=O)(=O)NCc3ccccn3)c3cccc1c23 | i | -22 | 4 | x | 7 | 6 | 14 | u
Cc1nn(C)c(C)c1CNC(=O)c1cc2n(n1)C(C(F)(F)F)CC(c1cccs1)N2 (stereo unspecified) | i | x | -9 | -8 | -4 | -18 | -12 | x
Cc1nc2c(c(C)nn2-c2ccccc2)c(C)c1CCC(=O)NCCCOC(C)C | i | -30 | 8 | 10 | -1 | -1 | 1 | 23
CCOC(=O)C1(c2csc(N)n2)COC(=O)C1 (stereo unspecified) | i | -6 | 3 | -1 | -2 | 3 | 0 | -24
CNC(=S)NCCc1ccc(OC)c(OC)c1 | i | x | 2 | 2 | 3 | 5 | -2 | x
CC(C)OCCCNC(=O)c1ccc(N(C)S(C)(=O)=O)cc1 | x | 1 | -2 | -11 | -2 | 3 | -11 | -20
Cc1nc2ccc(C(=O)O)cc2c2c1CC(C)S2 (stereo unspecified) | i | -5 | 43 | -14 | -4 | 1 | 75 | x | eIF4H FP inh retest=5;PABP FP inh retest=2
O=C(CC1=NCCNC(c2ccccc2)C1)c1ccccc1O (stereo unspecified) | i | -10 | -1 | 5 | 0 | -5 | -11 | x
CCc1sc(C(=O)N2CCN(CC(=O)Nc3cccc(F)c3)CC2)cc1C | x | 9 | x | 12 | 4 | -3 | x | -40
Cc1ccc(S(=O)(=O)N2CCN(S(=O)(=O)c3c(C)n[nH]c3C)CC2)cc1C | x | 5 | x | -7 | -2 | -2 | x | x
Cc1nn(CC(=O)NC(=O)NC2CCCCC2C)c(=O)c(C#N)c1C (stereo unspecified) | i | x | x | -6 | 1 | -2 | x | -22
O=C(Nc1ccc2ncccc2c1)c1cccc(Br)c1 | i | -16 | 7 | -13 | 8 | 0 | -19 | -87
O=C1C(Cc2ccc3[nH]ccc3c2)NC(=S)N1c1ccccc1 (stereo unspecified) | i | x | -8 | -4 | 1 | 6 | -4 | 6
Cc1ccc(-c2nc(COC(=O)C3=NN(c4ccccc4)C(=O)CC3)cs2)cc1 | x | -7 | x | -12 | -2 | 1 | x | -26
Cc1ccccc1C(=O)NN1C(=O)CSC1=S | i | -12 | 27 | 8 | 4 | 13 | -12 | -17
O=C(Nc1ccccc1)OCC1CCCN2CCCCC12 (stereo unspecified) | i | -6 | 6 | 2 | -2 | 3 | -3 | x
C/C(=N\Nc1ccc(Cl)c(C(=O)O)c1)c1cccc([N+](=O)[O-])c1 | i | -20 | -2 | -7 | -1 | -1 | 2 | -17
COc1ccc2oc(=O)c(C(=O)C[n+]3cccc(C)c3)cc2c1 | i | x | 28 | -10 | -3 | 0 | u | 13 | PABP FP inh retest=46
COC(=O)Nc1ccc(S(=O)(=O)N2CCCc3ccccc32)cc1 | i | -19 | -14 | 80* | -5 | -10 | 0 | 59*
Cc1nnc(SCC(=O)Nc2ccccc2F)n1Cc1ccco1 | i | -25 | 1 | -6 | -3 | 4 | -12 | -11
COc1ccc(-c2nnn(CC(=O)N(CC(=O)NC3CCCC3)c3ccccc3)n2)cc1OC | i | x | 2 | -6 | 0 | 1 | -9 | 1
